Assay outcomes as filed in PubChem.
GLA inh pH 4.5 – alpha-galactosidase A (human) inhibition, pH 4.5. purified enzyme, 4-MU-alpha-Gal fluorescence, pH 4.5. P06280. 230,000 tested, under 10 active. activity change, negative = inhibition, % at 105 µM; inconclusive = small, poorly fitted or top-dose-only inhibition, or a rising curve; inactive = flat fitted curve, though single readings scatter; no compound was filed as active;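 note: 0% = full activity with enzyme and -100% = basal without enzyme; dose as in the result columns while the protocol names 77 µM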
miR-21 FLuc – raises the signal of a miR-21 reporter. HeLa miR-21 FLuc reporter, luciferase, 48 h. Potency, µM (series often up to 38.3 µM), without a hit: at the highest dose reporter change, positive = more light. 340,000 tested, under 10 active. AID 2288; active = well fitted rising curve with a large enough effect; inconclusive = small, poorly fitted or top-dose-only effect; inactive = no such curve, though single readings can be large or run the other way;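 note: % of control where 0% means no effect; miR-21 action dims this reporter so a rising signal means less miR-21 action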
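HeLa cells stably expressing CMV-driven firefly luciferase with a downstream miR-21 binding sequence, endogenously expressing miR-21, were treated with titrations (up to about 40uM final) for 48 hours at 37 degree Celsius. Luciferase luminescence was read after lysis.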
Rango complex inh – inhibitors of Rango-importin beta complex formation; Q14974; Rango CFP/YFP FRET sensor + importin beta, 45 min; Potency, µM (series often up to 92.2 µM), without a hit: at the highest dose inhibition of complex formation; 0.031% of 340,000 active; active = rising FRET ratio curve, often small or poorly fitted; inconclusive = mostly compound fluorescence or quenching in the first reads; inactive = flat curves in all reads;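 note: potency is the fitted concentration of half-maximal effect; 0% = DMSO wells and 100% = buffer wells lacking importin beta; nearly all actives have a fitted effect of over 15% in size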
Target sequence (Q14974 whole entry, looked up): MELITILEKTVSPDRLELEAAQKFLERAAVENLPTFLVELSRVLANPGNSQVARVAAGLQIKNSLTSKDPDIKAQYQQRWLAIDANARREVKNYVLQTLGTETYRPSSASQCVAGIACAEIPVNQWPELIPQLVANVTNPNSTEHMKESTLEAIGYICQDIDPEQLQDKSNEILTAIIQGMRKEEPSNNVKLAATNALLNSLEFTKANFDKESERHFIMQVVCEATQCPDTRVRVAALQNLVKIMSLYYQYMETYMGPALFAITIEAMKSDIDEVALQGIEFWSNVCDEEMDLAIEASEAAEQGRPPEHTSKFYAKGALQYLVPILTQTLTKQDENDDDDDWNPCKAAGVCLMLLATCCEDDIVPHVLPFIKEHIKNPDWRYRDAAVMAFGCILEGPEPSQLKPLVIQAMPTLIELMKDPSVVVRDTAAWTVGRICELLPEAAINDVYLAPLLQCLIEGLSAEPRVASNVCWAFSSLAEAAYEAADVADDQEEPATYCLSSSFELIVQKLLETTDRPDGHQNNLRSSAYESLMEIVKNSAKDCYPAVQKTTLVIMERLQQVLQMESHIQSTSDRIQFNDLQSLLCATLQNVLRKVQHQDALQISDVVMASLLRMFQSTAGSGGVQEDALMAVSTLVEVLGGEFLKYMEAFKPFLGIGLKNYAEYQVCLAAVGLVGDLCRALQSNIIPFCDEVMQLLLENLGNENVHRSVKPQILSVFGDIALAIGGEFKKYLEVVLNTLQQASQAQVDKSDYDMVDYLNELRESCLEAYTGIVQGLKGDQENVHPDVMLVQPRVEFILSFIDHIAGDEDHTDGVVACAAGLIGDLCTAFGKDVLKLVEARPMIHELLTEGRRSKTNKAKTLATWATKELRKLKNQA
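FRET biosensor Rango (snurportin 1 IBB between N-terminal EYFP and C-terminal Cerulean), 50 nM in PBS/1 mM DTT/0.02% Tween-20/0.1% BSA, preincubated 5 min RT with compound; 0.125 microM importin beta added, 45 min RT, CFP/YFP FRET ratio read.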
Rango release inh – inhibition of RanGTP-driven Rango-importin beta dissociation. O95149+P62826. Biochemical FRET Rango-importin beta, RanGTP-induced dissociation. Potency, µM (highest dose often 46.1 µM), without a hit: top-dose activity change, negative = inhibition. 0.071% of 340,000 active. AID 540253; active means falling FRET ratio curve, often poorly fitted, with flat reads before Ran was added; inconclusive means other falling curves, or compound fluorescence or quenching; inactive means flat or rising ratio curve;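 note: potency is the fitted concentration of half-maximal effect; % of control where 0% means no effect; nearly all actives have a fitted effect of over 45% in size; -100% = wells without RanGTP and RCC1; the record marks most hits as doubtful in a second field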
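Rango (0.1 uM)–importin beta (0.25 uM) complex; RanGTP-RCC1 trigger; 45 min RT; CFP/YFP FRET read.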
Starred values were filed as active, the others as inactive; ? = inconclusive; / = no result given; & = joins results of further samples. Some of the compounds tested; rates above refer to the full screens.

SMILES	GLA inh pH 4.5	miR-21 FLuc	Rango complex inh	Rango release inh
O=C(COc1ccc2ccc(=O)oc2c1)N1C[C@H]2C[C@@H](C1)c1cccc(=O)n1C2	/	-1%	?	-1%
CN1CCC(OC(=O)Cc2ccccc2)CC1	1	-2%	-3.8%	24%
CN(C)C(=O)Oc1cccc(OCc2n(C)c3ccccc3[n+]2C)c1	-2	0%	-0.3%	-5%
CC(Cc1cnccn1)NCc1c(C(=O)N2CCCCCCC2)nc2ccc(Cl)cn12 (configuration not stated)	/	-7%	-2.5%	-10%
CNC(=O)Oc1ccc(C(=O)N2c3ccccc3NC(=O)C2C)cc1 (configuration not stated)	/	2%	0.0%	6%
O=C(COC(=O)Cc1ccccc1)NCCNC(=O)COC(=O)Cc1ccccc1	/	/	-0.6%	-7%
O=C(C1CCC(=O)N1C1CCCC1)N1CCC2(CC1)OCCO2 (configuration not stated)	-1	-9%	5.3%	-12%
O=C(NC1CC1)C1CSC(c2cccnc2)=N1 (configuration not stated)	6	-3%	-1.2%	0%
Cc1cccc(OP(=O)(NCc2ccccc2)Oc2cccc(C)c2)c1	-15	1%	-0.6%	-2%
COc1cccc(NC2=NCCCS2)c1	/	2%	8.7%	-1%
C[C@@H]1C[C@H]2OC(=O)C3(CO3)[C@H]2[C@H](O)[C@]2(C)C(=O)C3OC3[C@@H]12 (some centres not stated)	-2	?	/	/
CC1=NCCc2c1[nH]c1cc(O)ccc21	-14&-13&-13	/	?	?
CC/C(CC(c1ccccc1)c1c(O)c2ccccc2oc1=O)=N\NC(N)=S (configuration not stated)	5	?	7.3%	-6%
CCC1(c2ccccc2)C(=O)N(C)C(=O)N(C)C1=O	6	-3%	5.1%	9%
O=C(NC1CC2CCCC(C1)N2)c1ccccc1 (configuration not stated)	/	-5%	-2.5%	5%
Cc1nn(Cc2ccccc2)c(Cl)c1C(=O)OCC(=O)Nc1cccc2ccccc12	-9	2%	0.2%	-9%
CN1C(=O)C(=Cc2ccc(Sc3ccccc3)o2)C(=O)N(C)C1=S	/	/	?	-12%
OC(c1ccccc1)(c1ccc(Cl)cc1)C1CN2CCC1CC2 (configuration not stated)	-20	6%	2.3%	27%
C/C(=N\OC(=O)NC(C)C)c1sc(-c2ccccc2)nc1C	6	-34%	6.0%	2%
O=C(c1cc2cc(F)ccc2[nH]1)N1CCC2(CC1)OCCO2	/	-42%	0.0%	-3%
CCOc1ccc(Cl)cc1CNCCc1ccc(F)cc1	-4	-8%	1.5%	-10%
CN1CCN2c3ccc(N)cc3CC3(C(=O)NC(=O)NC3=O)C2C1 (configuration not stated)	3	4%	-0.4%	-21%
COc1ccc(-c2nn(CCC#N)cc2C(=O)NCc2ccccc2)cc1OC	/	-4%	-1.0%	-19%
Cc1ccc(N2C(=O)/C(=C/c3ccc(CN(CCC#N)S(C)(=O)=O)o3)C(=O)NC2=S)cc1	3	-2%	?	?
O=c1[nH]c(O)c(C=NCCc2ccccc2)c(=O)[nH]1	-1	1%	-1.8%	4%
O=c1c2ccccc2nc(/C=C/c2ccc(F)cc2)n1-c1ccccn1	5	3%	2.3%	-16%
COc1ccc(C(=O)C23CN4CN(CN(C4)C2)C3)cc1	-5	5%	-2.7%	-8%
CCn1c(O)c(C=Nc2ccc(S(N)(=O)=O)cc2)c(=O)[nH]c1=S	1	0%	2.6%	3%
Cn1cc(C(=O)NP(=O)(N2CCOCC2)N2CCOCC2)c2ccccc21	-5	-1%	4.3%	24%
CN1CCN(C(=O)Cc2nc3ccccc3[nH]2)CC1	13	-2%	?	-19%
COc1ccc(C=C2C(=O)NC(=S)NC2=O)cc1	/	/	4.6%	3%
Fc1ccc(CNCCc2ccc3c(c2)OCO3)cc1	/	-2%	3.2%	9%
COc1ccc(-n2c(O)c(C=Nc3c(C)n(C)n(-c4ccccc4)c3=O)c(=O)[nH]c2=O)cc1	-5	-1%	0.0%	-5%
COC(=O)C1=C(c2c(C)noc2C)C[C@@H]2CC[C@H]1N2C(=O)NCCNC(C)=O	/	/	?	-9%
O=C1NC(=O)C2(CCCC2)C(=O)N1	/	/	-4.8%	12%
CCCOc1ccc(N2C(=O)CC(N3CC=C(c4ccccc4)CC3)C2=O)cc1 (configuration not stated)	2	-12%	-1.3%	-11%

Shown with two lines to a compound: two of the compounds above
Second line of a record – GLA inh pH 4.5 | miR-21 FLuc | Rango complex inh | Rango release inh
CCn1c(O)c(C=Nc2ccc(S(N)(=O)=O)cc2)c(=O)[nH]c1=S
 : 1 | 0% | 2.6% | 3%
Cn1cc(C(=O)NP(=O)(N2CCOCC2)N2CCOCC2)c2ccccc21
 : -5 | -1% | 4.3% | 24%

The list goes on.
SMILES	GLA inh pH 4.5	miR-21 FLuc	Rango complex inh	Rango release inh
Clc1ccc(CCC(Cn2ccnc2)Sc2c(Cl)cccc2Cl)cc1 (configuration not stated)	/	/	2.6%	17%
CC/C(=N\NC(=O)Nc1ccccc1)c1c(O)n(Cc2ccccc2)c(=O)[nH]c1=O	-3	-43%	-1.0%	-5%
O=C(CCN1CCCCC1)Nc1ccc(Cl)cc1C(=O)c1ccccc1	/	-1%	0.4%	-12%
C[n+]1c2ccccc2nc2ccc(NCCO)cc21	/	25%	1.7%	10%
O=C(Cc1ccccc1)Oc1ccccc1N1C(=O)CCC1=O	2	1%	3.6%	0%
CCC(=NCc1cc(OC)cc(OC)c1)c1c(O)n(C)c(=O)n(C)c1=O	4	-1%	1.9%	-9%
C[C@]12CC(=CO)C(=O)C[C@@H]1CC[C@@H]1[C@@H]2CC[C@@]2(C)[C@H]1CC[C@]2(C)O	-3	6%	/	/
C=CCN1C(=O)NC(=O)/C(=C/c2cc3c4c(c2)CCCN4CCC3)C1=O	-5	4%	?	-15%
CCN1CCOC(c2ccccc2)C1 (configuration not stated)	/	/	0.3%	9%
CC1(C)CC(CCNCc2ccc3c(c2)OCO3)(Cc2ccccc2)CCO1 (configuration not stated)	1	4%	3.4%	-6%
Cc1ccc(N2C(=O)NC(=O)/C(=C\c3cc(C)n(-c4cc(C(=O)O)cc(C(=O)O)c4)c3C)C2=O)cc1	/	-5%	?	-11%
Cc1cc(C)[n+](CCCC[n+]2c(C)cc(C)cc2C)c(C)c1	/	/	1.8%	10%
CCCCP(=O)(O)c1ccccc1	0	1%	4.4%	5%
O=C(C1CC(=O)N(C2CCCCC2)C1)N1CCC2(CC1)OCCO2 (configuration not stated)	6	-8%	-0.7%	-2%
CC(C)c1ccc(N=Cc2c(O)n(C3CC3)c(=S)[nH]c2=O)cc1	-7	-2%	?	-2%
CCOC(=O)c1c(/N=C/C2C(=O)NC(=S)NC2=O)sc2c1CCC2	-2	-9%	?	9.2µM*
O=c1[nH]c(=O)n(Cc2ccc(F)cc2)c(O)c1C=NCCCn1ccnc1	5	-3%	-2.8%	18%
CCC(C)n1c(O)c(/C=N/Nc2ccccc2)c(=O)[nH]c1=S (configuration not stated)	-24	-4%	?	-21%
CN1CCC(N(C)c2nc(-c3ccccc3)nc3ccccc23)CC1	-13	17%	1.6%	13%
Cn1c(O)c(C(=NCCc2c[nH]c3ccccc23)c2ccccc2)c(=O)n(C)c1=O	2	3%	-1.7%	?
c1ccc2oc(N3CCNCC3)nc2c1	1	-5%	-0.1%	-10%
Cc1cnc[nH]1	/	/	-0.6%	0%
O=C(Cc1ccccc1)OCn1nnc2ccccc2c1=O	-4	-5%	3.4%	5%
CC(C)n1cc(C(=O)N(CC(=O)NC2CCCC2)Cc2ccccc2)cn1	3	-1%	-2.8%	10%
CCCCN1CCC(O)(c2ccccc2)C(C(=O)c2ccccc2)C1 (configuration not stated)	-7	-4%	-2.6%	-6%
O=C(c1cc(-c2cccnc2)nc2ccc(Cl)cc12)N1CCC2(CC1)OCCO2	-1	0%	-1.6%	-8%
CN1CCN(/N=C/c2c(O)n(Cc3ccc(F)cc3)c(=O)[nH]c2=O)CC1	-3	-3%	1.8%	-2%
CC(=O)Nc1cc(C(=O)N2CCC3(CC2)OCCO3)ccc1S(=O)(=O)c1ccc(Cl)cc1	7	1%	1.7%	1%
C/C(=N\NC(=O)c1ccncc1)c1c(O)n(-c2ccccc2)c(=O)[nH]c1=O	-3	-2%	2.8%	-20%
N#Cc1ccccc1Cn1cc(C(=O)c2ccccc2F)c2ccccc21	-8	-11%	0.1%	0%
OCC#CC[N+]1(CC#Cc2ccccc2)CCOCC1	7	-1%	2.4%	10%
C[N+](C)(C)CCc1ccc(O)cc1	2	-2%	0.1%	-5%
C#C[C@@]1(O)CCC2C3CCC4=C/C(=N/OCC(=O)NC(C(=O)NC(CC(C)C)C(=O)O)C(C)C)CC[C@]4(C)C3CC[C@@]21C (some centres not stated)	/	-4%	-4.1%	-7%
Nc1c(C(=O)NCCN2CCOCC2)c2nc3ccccc3nc2n1Cc1ccccc1	26	9%	?	?
CCCCn1c(=O)c(C(=O)Nc2ccccc2Cl)c(O)c2ccccc21	/	-12%	-1.0%	11%
Fc1ccc(N2CCN(Cc3cc4c(cc3Br)OCO4)CC2)cc1	/	2%	0.2%	11%
CC12CCC(O)CC1CCC1C2CCC2(C)C(C3=CC(=O)OC3)CCC12O (configuration not stated)	/	/	0.3%	-6%
COc1ccc(-c2[nH]ncc2CNC(C)Cc2cccc(C)n2)cc1F (configuration not stated)	-8	1%	-0.6%	1%
O=C(CN1CCCCC1)c1ccc2c(c1)OCO2	-3	-4%	-1.1%	13%
CCOC(=O)c1c(/N=C/C2C(=O)NC(=S)NC2=O)sc(C)c1C	1	2%	/	/
CC(C)NC(C)C(=O)c1ccc2ccccc2c1 (configuration not stated)	8	1%	-0.4%	4%
Cc1cc(OCC(=O)NCC2CCC(C(=O)O)CC2)c2c3c(c(=O)oc2c1)CCC3 (configuration not stated)	/	0%	3.5%	0%
CC(=O)N1CCC2(CC1)CC(=O)c1cc(OCC(=O)N3CCN(C)CC3)ccc1O2	13	-3%	-5.0%	-4%
COc1ccc(-n2c(/C=C3\C(=O)Nc4ccccc43)nc3ccccc3c2=O)cc1	-9	2%	0.5%	-2%
CC(=O)N1CCCSC1=Nc1ccccc1	8	0%	?	-2%
CCCCCCn1c(=O)c(C(=O)Nc2cccc(C)n2)c(O)c2ccccc21	/	0%	4.4%	4%
COc1c(C)cc(C(=O)C2CCCN(C3CCOCC3)C2)cc1C (configuration not stated)	-5	0%	-0.3%	8%
C=CCn1c(O)c(C(CC)=NCCCO)c(=O)[nH]c1=O	7	-2%	-0.8%	-3%
O=C1N=c2ccccc2=C/C1=C\c1c(O)[nH]c(=S)[nH]c1=O	5	-8%	?	-24%
C/C(CC(c1ccccc1)c1c(O)c2ccccc2oc1=O)=N\Nc1ccc([N+](=O)[O-])cc1[N+](=O)[O-] (configuration not stated)	-2	-5%	-1.5%	4%
CCOC(=O)c1c(C)n(Cc2ccccc2)c2ccc(OCC(O)CN3C(=O)CNC3=O)cc12 (configuration not stated)	4	-7%	0.4%	5%
O=c1c2ccccc2nc(CN2CCCCCC2)n1-c1ccc(F)cc1	-2	-4%	-1.1%	-3%
O=C(Nc1cccnc1)c1c(O)c2c(n(Cc3ccccc3)c1=O)CCCC2	-12	-8%	4.9%	-3%
O=C1NC(=O)C(Sc2ccccc2[N+](=O)[O-])C(=O)N1	/	-5%	-0.3%	-8%
COCCNC(=O)CN1C2CCC1CC(O)(c1cccnc1)C2 (configuration not stated)	/	-2%	2.2%	12%
O=c1c2ccccc2nc(-c2ccccc2)n1-c1ccc(O)cc1	7	10%	?	-8%
c1ccc(CCN2CCCCC2)nc1	/	/	0.3%	-4%
Cc1ncc(CN2CCCC(C(=O)c3cccc(OC(C)C)c3)C2)s1 (configuration not stated)	-8	-2%	-0.6%	1%
CCOc1cc2c(cc1OCC)-n1cccc1C(c1ccc(C(C)C)cc1)NC2 (configuration not stated)	/	30%	0.1%	-1%
CN(c1ccccc1)c1ccc([N+](=O)[O-])c2nonc12	/	-34%	?	-7%
CCCC(C)n1[nH]c(=O)c2c1NC(=O)CSC2c1ccc(OC)c(OC)c1 (configuration not stated)	-4	-7%	5.7%	-6%
O=C(COc1ccc(Cl)cc1)N(c1ccccc1Cl)C1CN2CCC1CC2 (configuration not stated)	-6	6%	4.3%	2%
